Bioassay records as filed in PubChem.
StopGo FLuc: lowers the firefly signal of an FMDV 2A StopGo reporter; 120,000 compounds, 0.23% hits; AID 1745856; HEK cells with a luciferase reporter of 2A StopGo recoding; Potency, µM (highest dose often 57.5 µM), inactives show at the top dose signal change, negative = less light; active = well fitted falling curve with a large enough effect; inconclusive = small, poorly fitted or top-dose-only effect; inactive = no such curve, though single readings can be large or run the other way; note: nearly all actives have a fitted effect of over 60% in size; overnight with compound
StopGo RLuc: lowers the Renilla signal of an FMDV 2A StopGo reporter | HEK cells with a luciferase reporter of 2A StopGo recoding | Potency, µM (titrated, usually from 57.5 µM), for inactives: top-dose signal change, negative = less light | 120,000 compounds, 0.32% hits; active means well fitted falling curve with a large enough effect; inconclusive means small, poorly fitted or top-dose-only effect; inactive means no such curve, though single readings can be large or run the other way; note: nearly all actives have a fitted effect of over 55% in size; overnight with compound
Numbers without * were called inactive; [ ] = dose if it differs, or a comment. % is set by controls: 0 for no effect and ±100 for the full control effect; potency is the fitted concentration of half-maximal effect.

For CCc1ccc(CN(Cc2ccco2)c2cnc(S(C)(=O)=O)nc2C(=O)Nc2c(C)cccc2C)cc1 the results were StopGo FLuc -4% and StopGo RLuc -6%.
For COc1cccc(Oc2nc(-c3ccccc3O)nc3ccccc23)c1 the results were StopGo FLuc 1% and StopGo RLuc -2%.
For CC(=O)Nc1c(C)noc1/C=C\c1ccc(C)c(S(=O)(=O)Nc2cc(C)ccc2C)c1 the results were StopGo FLuc 3% and StopGo RLuc 163%[activator].
`CCc1ccc(NS(=O)(=O)c2cc(-c3cnc(C4CC4)o3)ccc2C)cc1` gave StopGo FLuc inconclusive and StopGo RLuc 144%[activator].
Screening CC(C)c1ccccc1NC(=O)CCc1ncc(-c2ccccc2F)o1 returned StopGo FLuc -6% and StopGo RLuc -3%.
Screening O=C(Cn1c(=O)[nH]c2ccccc2c1=O)N1CCN(c2ccccc2F)CC1 returned StopGo FLuc 2% and StopGo RLuc 0%.
O=C1COc2ccc(C(=O)COC(=O)c3cc(Cl)ccc3Cl)cc2N1 was read as StopGo FLuc -2% and StopGo RLuc 2%.
O=C(Nc1ccccc1)c1cn(Cc2ccccc2)nn1 was read as StopGo FLuc 124%[activator] and StopGo RLuc 43%[activator].
For CCc1nn(CC(=O)NC2CC2)c(=O)c2cc3ccccc3n12 the results were StopGo FLuc 12% and StopGo RLuc 5%.
For COc1ccc2cc(C(C)C(=O)NCc3ccccc3)ccc2c1 (centres undefined) the results were StopGo FLuc 0% and StopGo RLuc 12%.
`CCN(CC)S(=O)(=O)c1cccc(C(=O)Nc2ccccc2C(=O)Nc2ccc(OC)cc2)c1` gave StopGo FLuc 30%[activator] and StopGo RLuc 74%[activator].
`CCCCn1c(=O)[nH]c(=O)c2c1nc(COC(=O)c1ccc(C)cc1)n2CCC` gave StopGo FLuc 5% and StopGo RLuc -2%.

Structures shown so far with sulfur (four):
For CCc1ccc(CN(Cc2ccco2)c2cnc(S(C)(=O)=O)nc2C(=O)Nc2c(C)cccc2C)cc1 the results were StopGo FLuc -4% and StopGo RLuc -6%.
For CC(=O)Nc1c(C)noc1/C=C\c1ccc(C)c(S(=O)(=O)Nc2cc(C)ccc2C)c1 the results were StopGo FLuc 3% and StopGo RLuc 163%[activator].
`CCc1ccc(NS(=O)(=O)c2cc(-c3cnc(C4CC4)o3)ccc2C)cc1` gave StopGo FLuc inconclusive and StopGo RLuc 144%[activator].
`CCN(CC)S(=O)(=O)c1cccc(C(=O)Nc2ccccc2C(=O)Nc2ccc(OC)cc2)c1` gave StopGo FLuc 30%[activator] and StopGo RLuc 74%[activator].

(listing goes on)
N#CCCN1CCN(C(C(=O)O)c2cn(CCC(=O)O)c3cc(Br)ccc23)CC1 (centres undefined) was read as StopGo FLuc -2% and StopGo RLuc -5%.
Cc1ccc(C(=O)N/N=C/c2ccc(N(C)C)cc2)cc1 was read as StopGo FLuc 0% and StopGo RLuc 20%.
Screening CC(C)Oc1ccc(C(=O)Nc2nnc3n2CCS3)cc1 returned StopGo FLuc 256%[activator] and StopGo RLuc 68%[activator].
`CCCSc1nc2c(c(=O)[nH]c(=O)n2C)n1Cc1cccc(Br)c1` gave StopGo FLuc -26% and StopGo RLuc inconclusive.
For Cc1cc(F)ccc1NC(=O)CCc1c[nH]c2ccccc12 the results were StopGo FLuc 18% and StopGo RLuc -4%.
For CNC(=O)CN1C(=O)COc2ccc(S(=O)(=O)N3CCC(C)CC3)cc21 the results were StopGo FLuc 4% and StopGo RLuc -2%.
Screening Cn1c(=O)c2c(n3c4ccccc4nc13)NC(=O)CC2c1ccccc1F (centres undefined) returned StopGo FLuc -17% and StopGo RLuc -4%.
For Cc1cc(C)n(-c2nc3c(c(=O)n(C/C=C/c4ccccc4)c(=O)n3C)n2C)n1 the results were StopGo FLuc -10% and StopGo RLuc -4%.
Screening CC(C)C(NC(=O)c1ccoc1)c1ccc(F)cc1 (centres undefined) returned StopGo FLuc 11% and StopGo RLuc -2%[1.06 µM].
CC(C)(C)c1ccc(NC(=O)COc2ccccc2C#N)cc1 was read as StopGo FLuc 0% and StopGo RLuc -28%.
`Cc1nc(N2CCN(c3ccccc3F)CC2)[nH]c(=O)c1CCC(C)C` gave StopGo FLuc -1% and StopGo RLuc 7%.
`COc1cc(NC(=O)Cn2c3c(c(=O)n2-c2ccccc2)Cc2cc(Cl)ccc2O3)cc(OC)c1` gave StopGo FLuc 82%[activator] and StopGo RLuc 3%.
For O=c1oc2ccccc2c(N2CCCC2)c1NS(=O)(=O)c1ccc(Br)s1 the results were StopGo FLuc 57%[activator] and StopGo RLuc 36%[activator].
For Cc1ccccc1OCC(=O)Nc1ccccc1OCc1cc(=O)n2ccccc2n1 the results were StopGo FLuc -12% and StopGo RLuc -7%.
CC(C#N)CN(C)C(=O)CCNC(=O)OCC(F)(F)F (centres undefined) was read as StopGo FLuc -4% and StopGo RLuc -6%.
`Cc1ccc2onc(CNC(=O)Nc3cc(F)ccc3F)c2c1` gave StopGo FLuc 31%[activator] and StopGo RLuc 200%[activator].
COc1ccc2cc(C(=O)NCCOc3cccc(C)c3)[nH]c2c1 was read as StopGo FLuc 26% and StopGo RLuc 40%[activator].
For Cc1cc(C)c2c(CC(=O)Nc3ccc(S(=O)(=O)Nc4ncccn4)cc3)coc2c1 the results were StopGo FLuc -14% and StopGo RLuc -6%.
`CCC(C)c1ccc(OCC(=O)Nc2ccc(OC)cc2)c(-n2cnnc2)c1` (centres undefined) gave StopGo FLuc 9% and StopGo RLuc -4%.
`COc1ccc(CN(C(=O)Nc2ccc(C)c(F)c2)C2CCN(C(C)=O)CC2)cc1` gave StopGo FLuc 0% and StopGo RLuc 14%.
CCOc1ccc2c(c1)sc1nc(=O)n(-c3ccc(Cl)c(Cl)c3)c(=O)n12 was read as StopGo FLuc -19% and StopGo RLuc -13%.
`COc1cccc(C(=O)Nc2nonc2-c2ccc(OC(C)C)cc2)c1` gave StopGo FLuc -9% and StopGo RLuc 19%.
For CN(C)c1cc2c(cc1NS(=O)(=O)c1ccccc1)n(C)c(=O)n2C the results were StopGo FLuc 4% and StopGo RLuc -2%.
`O=S(=O)(O)CC(S)CS` (centres undefined) gave StopGo FLuc 7% and StopGo RLuc 3%.

The final four entries of the section above are carried over, then new ones follow:
CCOc1ccc2c(c1)sc1nc(=O)n(-c3ccc(Cl)c(Cl)c3)c(=O)n12 was read as StopGo FLuc -19% and StopGo RLuc -13%.
`COc1cccc(C(=O)Nc2nonc2-c2ccc(OC(C)C)cc2)c1` gave StopGo FLuc -9% and StopGo RLuc 19%.
For CN(C)c1cc2c(cc1NS(=O)(=O)c1ccccc1)n(C)c(=O)n2C the results were StopGo FLuc 4% and StopGo RLuc -2%.
`O=S(=O)(O)CC(S)CS` (centres undefined) gave StopGo FLuc 7% and StopGo RLuc 3%.
`COc1ccc(C)c2sc(NC(=O)c3ccc(S(=O)(=O)N4CCCC4)cc3)nc12` gave StopGo FLuc -5% and StopGo RLuc -3%.
O=C(CSc1nnnn1Cc1ccccc1)N1N=C(c2cc3ccccc3o2)CC1c1ccco1 (centres undefined) was read as StopGo FLuc 0% and StopGo RLuc 0%.
Screening CCC(CO)Nc1cccc2c1S(=O)(=O)N(Cc1cn(Cc3cccc(C(F)(F)F)c3)nn1)Cc1ccccc1O2 (centres undefined) returned StopGo FLuc 8% and StopGo RLuc 179%[activator].
For COc1ccc(CNC(=O)Cn2ccc3cc(S(=O)(=O)N4CCCCCC4)ccc32)cc1OC the results were StopGo FLuc 29% and StopGo RLuc 181%[activator].
Screening Cc1ccc(NC(=O)C2CCCN(c3nnc(-n4c(C)ccc4C)s3)C2)c(C)c1 (centres undefined) returned StopGo FLuc 28% and StopGo RLuc 20%.
Screening CC(NC(=O)C1CCN(C(=O)c2ccc(-n3ccc4ccccc43)s2)CC1)c1ccccc1 (centres undefined) returned StopGo FLuc 64%[activator] and StopGo RLuc -6%.
`COc1ccccc1CNC(=O)c1ccc2c(c1)N(Cc1cccc(Cl)c1)C(=O)c1ccccc1S2(=O)=O` gave StopGo FLuc -1% and StopGo RLuc 20%.
`CCOC(=O)CN1C(=O)S/C(=C/c2cn(C)c3ccccc23)C1=O` gave StopGo FLuc -6% and StopGo RLuc -7%.
`N#CC1(C#N)[C@H](C(N)=O)[C@H]1c1ccccc1` gave StopGo FLuc -3% and StopGo RLuc 2%.
For CC(C)(C)OC(=O)N1CCC(c2c(C(=O)N3CCN(C4CCCCC4)CC3)cnn2-c2cccc(Cl)c2)CC1 the results were StopGo FLuc -10% and StopGo RLuc -4%.
Cc1ccc(NC(=O)[C@@H](c2ccccc2)N2Cc3ccccc3C2=O)cc1 was read as StopGo FLuc 2% and StopGo RLuc 53%[activator].
O=C(Nc1cccc(C(F)(F)F)c1)Nc1nnc(N2CCCCCC2)s1 was read as StopGo FLuc 1% and StopGo RLuc -1%.
`CCOc1ccc(C(=O)/C=C/c2cccc(O)c2)cc1` gave StopGo FLuc 191%[activator] and StopGo RLuc 25%.
OB(O)c1cccc2c1Sc1ccccc1S2 was read as StopGo FLuc 95%[activator] and StopGo RLuc 31%[activator].
Cc1ccc(-c2nn(CC(=O)NC3CCCCC3)c3c2cnc2ccccc23)cc1 was read as StopGo FLuc -11% and StopGo RLuc -13%.
For Cc1cc(=O)oc2cc(OCC(=O)Nc3nnc(C4CC4)s3)ccc12 the results were StopGo FLuc -12% and StopGo RLuc -18%.
`O=C(CCSCc1cccc(Cl)c1)NCc1ccccc1Cl` gave StopGo FLuc -13% and StopGo RLuc -3%.
Screening O=C(CCN1C(=O)c2ccccc2S1(=O)=O)Nc1ccc(S(=O)(=O)N2CCCC2)cc1 returned StopGo FLuc -5% and StopGo RLuc -1%.
`O=C(CSc1nnc2ccc(-c3ccc(F)cc3)nn12)N1CCCc2ccccc21` gave StopGo FLuc 10% and StopGo RLuc 5%.
CCCc1nnc2sc(-c3ccc(CNC(=O)c4ccccc4Br)cc3)nn12 was read as StopGo FLuc -6% and StopGo RLuc -13%.
CCNC(=O)c1cccc(NC(=O)c2nn(CC)c(=O)c3ccccc23)c1 was read as StopGo FLuc 64%[activator] and StopGo RLuc 57%[activator].
COc1cccc(OCc2nc3ccccc3n2CCOc2ccccc2)c1 was read as StopGo FLuc 21% and StopGo RLuc inconclusive.
Screening CCN(CC)C(=S)SCC(=O)NC(=O)c1ccc[nH]1 returned StopGo FLuc 2% and StopGo RLuc -6%.
For O=C(Nc1cccc2ccccc12)C(C(=O)Nc1cccc2ccccc12)C12CC3CC(CC(C3)C1)C2 the results were StopGo FLuc -4% and StopGo RLuc 171%[activator].

Ordered by heavy-atom count (ascending): part of the list above.
`CCOc1ccc(C(=O)/C=C/c2cccc(O)c2)cc1` gave StopGo FLuc 191%[activator] and StopGo RLuc 25%.
Screening O=C(CCN1C(=O)c2ccccc2S1(=O)=O)Nc1ccc(S(=O)(=O)N2CCCC2)cc1 returned StopGo FLuc -5% and StopGo RLuc -1%.
For O=C(Nc1cccc2ccccc12)C(C(=O)Nc1cccc2ccccc12)C12CC3CC(CC(C3)C1)C2 the results were StopGo FLuc -4% and StopGo RLuc 171%[activator].

Next section.
Screening CCCc1ccc(C(=O)O)s1 returned StopGo FLuc 8% and StopGo RLuc 9%.
`O=S(Cc1ccc(Cl)cc1)Cc1ccc(Cl)cc1Cl` (centres undefined) gave StopGo FLuc -12% and StopGo RLuc 20%[1.06 µM].
For CC(C)CNC(=O)c1c(-n2cnnn2)sc2c1CCC2 the results were StopGo FLuc 3% and StopGo RLuc -1%.
`COc1cccc(C(=O)c2cn(CC(=O)Nc3cccc(C)c3C)c3nc(C)ccc3c2=O)c1` gave StopGo FLuc -17% and StopGo RLuc -6%.
For Cc1nn(CC(=O)Nc2ccc3c(c2)nc(Cn2ccc4ccccc42)n3C)c(=O)c2ccccc12 the results were StopGo FLuc 5% and StopGo RLuc 3%.
CC(C)(C)C(CN1CCCC1)OC(=O)c1ccccc1C(=O)O (centres undefined) was read as StopGo FLuc 2% and StopGo RLuc 12%.
COc1cc(C(=O)Oc2ccc3c(=O)c(-c4ccccc4)coc3c2)cc(OC)c1OC was read as StopGo FLuc 0% and StopGo RLuc 11%.
CC(=O)c1sc(Nc2cc(C)cc(C)c2)nc1C was read as StopGo FLuc 0% and StopGo RLuc 15%.
Cc1cccc(C(=O)OCc2cc(=O)n3nc(C4CC4)sc3n2)c1 was read as StopGo FLuc -6% and StopGo RLuc 0%.
Cc1nc2c(n1O)CCc1c-2no[n+]1[O-] was read as StopGo FLuc 4% and StopGo RLuc 2%.
CCOC(=O)c1cccc(NS(=O)(=O)c2cc(-c3cnc(C4CC4)o3)ccc2C)c1 was read as StopGo FLuc 2% and StopGo RLuc 279%[activator].
For O=C(Nc1ccccc1)C(c1ccccc1)c1ccccc1 the results were StopGo FLuc -8% and StopGo RLuc -1%.
For COc1ccc(/C=C\C(=O)Nc2cccc3cccnc23)cc1OC the results were StopGo FLuc 118%[activator] and StopGo RLuc 47%[activator].
Screening O=C(NC12CC3CC(CC(C3)C1)C2)c1csc2c1CCCC2 returned StopGo FLuc -2% and StopGo RLuc 8%.
Screening CN(C)CC(NS(=O)(=O)c1cccc(Cl)c1)c1ccccc1 (centres undefined) returned StopGo FLuc -11% and StopGo RLuc -2%.
For Cc1ccc(CNC(=O)CSc2nc3c(sc4ccccc43)c(=O)n2CCCC(=O)NCCO)cc1 the results were StopGo FLuc 0% and StopGo RLuc -11%.
`CCNc1c(NC(=O)c2c(OC)cccc2OC)c(=O)oc2ccccc12` gave StopGo FLuc -1% and StopGo RLuc 6%.
Screening O=C(OCc1ccccc1)c1ccc(-c2nnn(Cc3ccccc3F)n2)cc1 returned StopGo FLuc 12% and StopGo RLuc 0%.
`CC(=O)Nc1ccc(NC(=O)CSc2cn(CC(=O)N3CCOCC3)c3ccccc23)cc1` gave StopGo FLuc 2% and StopGo RLuc -10%.

This is a subset (hit frequency here may not be typical).
